MgrA DNA FP = S. aureus MgrA activity modulators, primary screen, biochemical, S. aureus Newman, fluorescence polarization; MgrA-DNA binding; inhibition, %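 (about 10 µg/mL by stock and volumes)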; hit rate 0.13% among 84,000;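 active means above 50% in either of two replicates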;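 further: 0% = protein plus DNA without compound and 100% = DNA alone without protein; higher means less MgrA bound to DNA so lower polarization; one replicate is shown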
Sa helicase inh = inhibitors of S. aureus replicative helicase, primary screen, biochemical, fluorescence unwinding readout; replicative DNA helicase (DnaC/DnaB), Staphylococcus aureus; purified S. aureus helicase, fluorescence unwinding assay; about half of the hits fall short of the stated cut; inhibition, %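 (tested at about 80 µM)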; hit rate 0.05% among 120,000; AID 485395, 2010;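 active means both duplicates at 50% or more, or one of them with a favoured structure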;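 further: 0% = mean of negative control wells and 100% = mean of positive control wells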
Active calls of the source: *; nt = not tested or not shown.

SMILES	MgrA DNA FP	Sa helicase inh
COc1ccc(-c2nc3c(c(SC)n2)COC(C)(C)C3)cc1	0.5	16.0
O=C(NCCc1ccccc1)C1CC(=O)N(CCc2ccccc2)C(=Nc2ccc(F)cc2)S1 (configuration not stated)	2.2	9.0
CC(NC(=O)c1ccc(Br)cc1)C1CCCO1 (configuration not stated)	8.1	8.0
Cc1c(/C=N/NC(=O)Cc2cccs2)cc(C#N)n1C	nt	0.0
CC(OC(=O)c1ccccc1NCc1ccco1)C(=O)Nc1ccc(Cl)cn1 (configuration not stated)	nt	-2.0
CSc1nc(-c2ccc(Cl)cc2)nc(N)c1C#N	nt	-27.0
COC(=O)c1ccccc1N(C)C(=O)c1cc2ccccc2oc1=O	0.2	3.0
Cc1c(N=C/C=C/c2ccccc2)c(=O)n(-c2ccccc2)n1C	nt	-1.0

Later entries.
SMILES	MgrA DNA FP	Sa helicase inh
CCC(CC)C(=O)N1CCN(c2ccccc2)CC1	-5.1	-1.0
CCOc1ccc(-n2c3nc4ccccc4nc3c3c(=O)n(CCOC)cnc32)cc1	nt	-19.0
CCCN1C(=O)CCS(=O)(=O)c2ccccc21	nt	4.0
Cc1ccccc1-n1c(SCc2nc(N)nc(N)n2)nc2sc3c(c2c1=O)CCCCC3	nt	4.0
COC(=O)c1ccc(NC(=O)CNC(C)(C)CO)cc1	nt	13.0
CN1CCN(CC(O)COCc2ccccc2)CC1 (configuration not stated)	nt	-5.0
C[C@H](NC(=O)c1cccc(C(F)(F)F)c1)c1nc2ccccc2[nH]1	nt	11.0
CCCn1c(=NC(=O)CS(=O)(=O)c2ccccc2)sc2cc(S(C)(=O)=O)ccc21	nt	11.0

Going on with the list.
SMILES	MgrA DNA FP	Sa helicase inh
O=C(O)c1ccnc(-c2cc(C(=O)O)ccn2)c1	-1.0	nt
CC1CCN(c2nc(-c3ccc(C(C)C)cc3)c(C#N)c(=O)[nH]2)CC1	nt	21.0
Cc1nc(-c2cc(C#N)c(SCCNC(=O)c3ccc(Cl)cc3Cl)nc2C)cs1	3.0	nt
CC(C)c1nnc(-c2cc3sccc3s2)o1	-2.5	nt
COc1ccccc1Cn1c(=O)c2cccnc2n(CC(=O)NCc2ccc(C)cc2)c1=O	nt	-14.0
CC1CCN(C(=O)c2cc3c(=O)[nH]c4ccccc4c3s2)CC1	nt	-5.0
Cc1ccc(SC(C)C(=O)O/N=C(\N)c2ccccn2)cc1 (configuration not stated)	2.4	7.0
O=C(NCCO)c1ccc2c(c1)OCO2	0.5	0.0

Remaining list, next part.
SMILES	MgrA DNA FP	Sa helicase inh
CCOC(=O)c1ccc(N=Cc2cccs2)cc1	-0.8	nt
CCOc1cc2c(cc1/C=C1\NC(=S)NC1=O)OCO2	nt	-62.0
O=C(NC(Cc1ccccc1)C(=O)O)OCc1ccccc1 (configuration not stated)	-0.5	2.0
Nc1ccc(S(=O)(=O)NCCC2=CCCCC2)cc1	1.1	6.0
CC(=O)Nc1ccc(N=Cc2c[nH]c3ccccc23)cc1	-2.3	7.0
O=C1CC(C(=O)NCc2ccco2)C2(CCCCC2)O1 (configuration not stated)	0.6	8.0
Cc1cc2c3c(c1)C1(C(=O)N3C(C)(C)CC2C)C(C#N)=C(N)Oc2cc(O)ccc21 (configuration not stated)	0.5	6.0
COc1ccc(/C=C2\CCOC2=O)cc1	0.1	1.0

The results go on:
SMILES	MgrA DNA FP	Sa helicase inh
CC(OC(=O)c1cccc(S(=O)(=O)NCc2ccccc2)c1)C(=O)N1CCN(C(=O)c2ccco2)CC1 (configuration not stated)	nt	7.0
O=C(O)C1C2C=CC3(O2)C1C(=O)N1c2ccccc2C2OCCC2C13 (configuration not stated)	4.4	5.0
NNC(=O)CC1NCCN(Cc2ccccc2)C1=O (configuration not stated)	-3.2	nt
CCOc1ccc(NC2=NCCC(=O)N2Cc2cccs2)cc1	-1.6	3.0
CCCCc1cc(=O)oc2c(C)c(OCC(=O)N3CCCC3)ccc12	-4.5	6.0
COc1ccc(/C=c2\sc3nc4cc(Br)cnc4n3c2=O)cc1	4.3	5.0
COc1cc(N=c2scc(-c3ccc(S(=O)(=O)N4CCCC4)cc3)n2C)c(OC)cc1Cl	2.2	11.0
Cc1ccc(C)n1NC(=O)c1ccc(Oc2ncnc3sccc23)cc1	nt	14.0

(list continues)
SMILES	MgrA DNA FP	Sa helicase inh
CC(C)CCC(=O)O	nt	18.0
C=CCN1C(=O)/C(=C\c2ccc(OCc3ccccc3C#N)cc2)C(=O)NC1=S	34.2	9.0
CCOC(=O)c1sc2nc(NC(C)=O)sc2c1C	nt	-17.0
CCCCc1nc2ccccc2n1CC(=O)NC1=NCCS1	nt	9.0
COc1ccc(C(Nc2ccccn2)c2c(C)[nH]c3ccccc23)cc1OC (configuration not stated)	nt	15.0
CCOc1cc(/C=c2\sc3nc4c(C)c(C)ccc4n3c2=O)cc(Cl)c1O	-2.0	-85.0
S=c1[nH]nc(Nc2cccc(Br)c2)s1	nt	-15.0
N#C/C(=C(/O)CSc1ncnc2sc3c(c12)CCC3)c1nc2ccccc2[nH]1	nt	-25.0

Sorted by count of non-hydrogen atoms (high to low): some entries from above.
SMILES	MgrA DNA FP	Sa helicase inh
COc1ccc(C(Nc2ccccn2)c2c(C)[nH]c3ccccc23)cc1OC (configuration not stated)	nt	15.0
CCOc1cc(/C=c2\sc3nc4c(C)c(C)ccc4n3c2=O)cc(Cl)c1O	-2.0	-85.0
CCCCc1nc2ccccc2n1CC(=O)NC1=NCCS1	nt	9.0
CCOC(=O)c1sc2nc(NC(C)=O)sc2c1C	nt	-17.0
S=c1[nH]nc(Nc2cccc(Br)c2)s1	nt	-15.0
CC(C)CCC(=O)O	nt	18.0

New compounds follow:
SMILES	MgrA DNA FP	Sa helicase inh
CCOC(=O)c1cnc2c(-c3ccccc3)c(C(F)(F)F)nn2c1C	-1.2	-1.0
c1ccc2oc(-c3ccn[nH]3)cc2c1	-2.8	nt
Cc1cc2cc(CNC(=O)c3ccc(S(=O)(=O)N(C)C)cc3)ccc2[nH]1	nt	14.0
O=C(Cc1ccsc1)Nc1ccc(-n2cnnn2)cc1	nt	-15.0
NC(=O)c1ccccc1OCC(=O)N1CCCc2ccccc21	nt	-2.0
CC(=O)Nc1ccc2c(c1)S(=O)(=O)c1cc(NC(C)=O)ccc1-2	-4.0	-1.0
CCCOC(=O)CC1C(=O)NCCN1Cc1ccccc1 (configuration not stated)	nt	3.0
C=C(C)CC(Nc1ccccc1F)c1ccco1 (configuration not stated)	-1.1	0.0

The closing 2 records of the part before open the next one:
Structure | MgrA DNA FP | Sa helicase inh
CCCOC(=O)CC1C(=O)NCCN1Cc1ccccc1 (configuration not stated) | nt | 3.0
C=C(C)CC(Nc1ccccc1F)c1ccco1 (configuration not stated) | -1.1 | 0.0
N/C(C[n+]1ccccc1)=N\O | 0.6 | -2.0
CC1CN(/C=C(\C#N)S(=O)(=O)c2ccc(Br)cc2)CC(C)O1 (configuration not stated) | -0.2 | nt
CC(CN=CC1=C(O)CC(C)(C)CC1=O)c1ccccc1 (configuration not stated) | 0.7 | 11.0
CCOC(=O)Nc1ccccc1C(=O)OC | 2.0 | nt
CCc1ccc(NC(=O)CN(c2ccc3c(c2)OCO3)S(=O)(=O)c2c(C)noc2C)cc1 | -2.0 | 12.0
CC1(C)CC2=NN(c3ccccc3)P(=O)(N3CCCc4ccccc43)C2=C(N2CCCC2)C1 (configuration not stated) | nt | 13.0
c1ccc(-n2ncc3c(NC4CCCCC4)ncnc32)cc1 | nt | 0.0
COC(=O)c1ccc(CSc2nncn2N)o1 | 0.4 | 9.0
CCCC(CCC)C(=O)Nc1cccc(-c2nc3ncccn3c2C)c1 | nt | 17.0
O=C(NC(=O)c1ccccc1O)c1ccc(C(F)(F)F)cc1 | 3.3 | nt
CCOc1ccc(S(=O)(=O)N2CCN(C(=O)C3COc4ccccc4O3)CC2)cc1 (configuration not stated) | nt | -3.0
O=C(/C=C/c1ccco1)Nc1ccc2nn(-c3ccccc3)nc2c1 | 4.3 | 5.0
CCn1c(C(=O)OC)cc2c1ccn2-c1ccc(F)cc1 | 4.3 | -18.0
CC1=C(OS(=O)(=O)c2cc(C)c(Cl)cc2Cl)C(=O)CC1 | 0.0 | nt
CCC(Sc1nc2ccccc2c(=O)n1CCc1ccc(OC)c(OC)c1)C(=O)N1CCOCC1 (configuration not stated) | nt | -10.0
Cc1cc(C(=O)N/N=C/c2ccc(O)cc2)c2ccccc2n1 | nt | 43.0
Cc1cc(C(=O)NC2CCCCCC2)no1 | nt | -7.0
Cc1csc(=O)n1CCOC(=O)c1ccc2[nH]c3c(c2c1)CCCC3 | nt | 6.0
COc1ccc(-c2nc(N)ncc2-c2cscn2)c(O)c1 | -0.3 | 6.0
O=C(O)CCC(=O)Nc1nc2ccccc2s1 | -1.5 | 2.0

(continued)
Structure | MgrA DNA FP | Sa helicase inh
O=C(NC1CCOC1=O)c1ccc(COc2ccc(Cl)cc2Cl)o1 (configuration not stated) | -4.5 | 8.0
NNc1nc(-c2ccccc2)c2ccccc2n1 | nt | 2.0
Cc1[nH]c(=S)[nH]c(=O)c1Cc1ccc(C(=O)O)o1 | 0.0 | 0.0
CCC1(c2cccc(OC(=O)C3CCCCC3)c2)CCCCN(C)C1=O (configuration not stated) | 2.0 | nt
O=C(NCc1ccccn1)c1ccc(/C=N/O)nc1 | 1.1 | 8.0
COC(=O)C1=C(Nc2ccccc2N)CSC1 | 7.9 | nt
CCOC(=O)c1sc2ncnc(Nc3ccc(OCC)cc3)c2c1C | 1.7 | -9.0
CCOC(=O)CC(=O)Nc1scc(C)c1C(=O)OCC | 2.0 | nt
CC(C)(C)c1ccc(CSc2nc3c(c(=O)[nH]2)CCC3)cc1 | 1.1 | 8.0
CCOC(=O)c1sc(NC(=O)Cc2cccc3ccccc23)cc1C | nt | -12.0
CC1Oc2ccccc2OC1(O)c1ccccn1 (configuration not stated) | 2.5 | 5.0
Cc1cc(C)cc(NC(=O)COC(=O)c2cccnc2Cl)c1 | -1.2 | 12.0
CC(Oc1ccc(F)cc1)C(=O)N(Cc1ccccc1Cl)C1CCS(=O)(=O)C1 (configuration not stated) | nt | -5.0
CC(=O)Oc1cccc(C(=O)N2CCC(C)CC2)c1 | -0.9 | 1.0
COCCNC(=O)c1cc2c(=O)n(C)c3ccccc3c2s1 | nt | -22.0
CCCN(Cc1ccccc1)S(=O)(=O)c1ccc(N2C(=O)CCC2=O)cc1 | -1.1 | 4.0
CCOC(=O)c1ccc(NC(=O)C2CC(=O)N(C)C(=Nc3ccccc3OC)S2)cc1 (configuration not stated) | -1.3 | nt
CN(C)C(CC(=O)Nc1cccc(C(F)(F)F)c1)C(=O)O (configuration not stated) | nt | 10.0
Cc1cnc(C(=O)NCc2ccc(Cl)cc2Cl)cn1 | nt | -2.0
Cc1oc(-c2ccccc2F)nc1CS(=O)(=O)CC(=O)N1C(C)CCCC1C (configuration not stated) | nt | 11.0

(cont.)
Structure | MgrA DNA FP | Sa helicase inh
CCOc1ccc(CC(C(N)=O)C(N)=O)cc1 | -1.3 | 8.0
CC(C)Cn1cc(C(=O)NCC2CCCO2)c2c3ccccc3n(C)c2c1=O (configuration not stated) | nt | -14.0
Clc1ccc2c(N3CCOCC3)ccnc2c1 | 0.6 | 7.0
Clc1cc(Cl)cc(Br)c1 | -0.6 | nt
CCOC(=O)c1cc2cc(Cl)ccc2oc1=O | nt | -25.0
CC(C)(C)c1ccc(-c2cc(N)n(S(=O)(=O)c3cccc4nsnc34)n2)cc1 | nt | -7.0
N#CCC(=O)c1cc(-c2ccccc2)c(C(F)(F)F)s1 | 2.3 | nt
CC(=O)NCCc1ccc(C(=O)O)cc1 | nt | -13.0
CC(=O)c1ccc(-c2ccc(Cl)c(Cl)c2)o1 | 0.8 | nt
COc1ccccc1NC(=O)c1ccccc1F | nt | -23.0
Cc1cccc(NCc2csc(-c3ccccc3)n2)c1 | -0.6 | 8.0
COC(=O)CNC(=O)c1c(-c2ccccc2)noc1C | 4.3 | -3.0
CCOC(=O)c1c(CN2CCCCC2)n(-c2ccccc2)c2ccc(OC(C)=O)cc12 | 1.5 | 0.0
NNC(=O)CSc1n[nH]c(=O)[nH]c1=O | nt | -2.0
O=c1nc2n(-c3ccc(Br)cc3)c3cccc(Cl)c3cc-2c(=O)[nH]1 | 1.4 | -9.0
O=C(c1ccc(=O)[nH]c1)N1CCSC1=NCc1ccccc1 | nt | 16.0
Cc1c(C(=O)N2CCOCC2)cc(C(C)(C)C)n1-c1ccccc1 | nt | -14.0
O=C(NNC(=O)C1c2ccccc2Oc2ccccc21)c1cccc([N+](=O)[O-])c1 | -1.0 | nt
CCCCS(=O)(=O)Nc1cc(C)cc(C)c1 | -3.5 | 0.0
COc1cc(/C=C2\CCc3ccccc3C2=O)cc(OC)c1OC | -2.0 | nt

Going on with the list.
Structure | MgrA DNA FP | Sa helicase inh
COc1cc(OC)cc(-c2nc3ccccc3c(=O)n2NC(=O)c2cc(OC)c(OC)c(OC)c2)c1 | 1.6 | nt
O=C(/C=C/c1cccs1)Nc1ccc2c(c1)OCO2 | nt | -15.0
O=c1ccc2cc(S(=O)(=O)N3CCCCC3)ccc2[nH]1 | -0.1 | 3.0
CC(=O)Nc1cccc(-n2nnc(SCC(=O)c3cc(-c4ccccc4)no3)n2)c1 | nt | -16.0

Some of these compounds in order of their number in MgrA DNA FP, lowest first.
| SMILES | MgrA DNA FP |
| --- | --- |
| O=C(O)CCC(=O)Nc1nc2ccccc2s1 | -1.5 |
| O=C(NNC(=O)C1c2ccccc2Oc2ccccc21)c1cccc([N+](=O)[O-])c1 | -1.0 |
| N#CCC(=O)c1cc(-c2ccccc2)c(C(F)(F)F)s1 | 2.3 |

Compound activity from PubChem.

Not all compounds are listed; rates above refer to the full screens.
